CBX7 inh: CBX7 chromodomain binding inhibitors, primary screen, biochemical, AlphaScreen; normalised signal (fraction of DMSO) (test concentration not listed); AlphaScreen His6-CBX7 / biotin-H3K27me3 peptide binding; hits give low values; Chromobox protein homolog 7 (Homo sapiens), O95931; AID 1224903, 2016; 1.1% of 66,000 active; in the data active = normalised signal below about 0.5;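 also: 100 nL library stock added to about 20 µL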
Target sequence (O95931 whole entry, looked up): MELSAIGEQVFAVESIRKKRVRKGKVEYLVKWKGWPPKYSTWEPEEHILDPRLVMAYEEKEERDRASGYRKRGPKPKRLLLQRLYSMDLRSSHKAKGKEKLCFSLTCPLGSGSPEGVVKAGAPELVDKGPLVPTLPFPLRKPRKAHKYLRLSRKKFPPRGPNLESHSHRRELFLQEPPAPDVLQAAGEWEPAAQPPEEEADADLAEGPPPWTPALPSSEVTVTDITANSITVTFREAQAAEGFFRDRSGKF
CBX7 inh z-score: also measured in CBX7 inh; calls as there; z-score; measured here: z-score of CBX7 signal; some inactives read as strong as hits; reference of the scale not given here;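 same signal on another scale; lower means less binding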
An asterisk follows results filed as active. Only part of the results is shown (hit frequency here may not be typical).

For COc1ccc(C(=O)N2CC(=O)Nc3ccc(C)cc3C2c2ccccc2)cc1OC (configuration not stated) the results were CBX7 inh 1 and CBX7 inh z-score 1.1.
Screening O=C(Nc1nnc(-c2cccnc2)s1)c1ccccc1F returned CBX7 inh 1.1 and CBX7 inh z-score 1.4.
Cc1cccc(NC(=O)c2cc(-c3cccs3)nc3ccccc23)c1C was read as CBX7 inh 1.1 and CBX7 inh z-score 2.9.
`Fc1ccc(-n2nnnc2SCc2ccc(Cl)cc2)cc1Cl` gave CBX7 inh 1 and CBX7 inh z-score 0.065.
`CCCN1CCN(C(=O)CCc2c(C)nc3cc(-c4ccc(OC)cc4OC)nn3c2C)CC1` gave CBX7 inh 1 and CBX7 inh z-score 0.28.
`Cc1ccc(NC(=O)Cn2cc(S(=O)(=O)c3ccccc3)c(=O)c3cc(F)ccc32)cc1` gave CBX7 inh 1 and CBX7 inh z-score 0.18.
Screening CCc1nc(N2CCCCC2)c2c3c(sc2n1)CCC3 returned CBX7 inh 1.5 and CBX7 inh z-score 0.92.
`CN(Cc1ccccc1)C(C(=O)NC1CCCCC1)c1ccc(Cl)cc1` (configuration not stated) gave CBX7 inh 0.99 and CBX7 inh z-score -0.27.
CCCCN(C)CCCNC(=O)c1cc(-c2ccc(OCC)cc2)nc2ccccc12 was read as CBX7 inh 1 and CBX7 inh z-score 0.41.
OCCCc1nc2ccccc2n1CCOc1ccccc1 was read as CBX7 inh 1.2 and CBX7 inh z-score 1.8.
`O=C1CC(c2ccccc2OCc2ccccc2)c2cc3c(cc2N1)OCO3` (configuration not stated) gave CBX7 inh 0.74 and CBX7 inh z-score -3.3.
Screening COc1ccc(C(C(=O)NC2CCCCC2)N2CCOCC2)cc1 (configuration not stated) returned CBX7 inh 1.1 and CBX7 inh z-score 2.5.
Screening CCCCN(CC)C(=O)c1cc2c(-c3ccc(OC)c(OC)c3)nn(C)c2s1 returned CBX7 inh 0.95 and CBX7 inh z-score -1.3.
Screening CC(C)c1ccc(NC(=O)CCc2nc(-c3ccccc3F)no2)cc1 returned CBX7 inh 1 and CBX7 inh z-score 1.3.
`O=C(CN1CCCN(Cc2ccc(F)cc2Cl)C1=O)NCCc1ccc(Cl)cc1` gave CBX7 inh 1.1 and CBX7 inh z-score 2.1.
Screening CCOc1ccc2nc(C)cc(Nc3ccc(N4CCOCC4)cc3)c2c1 returned CBX7 inh 1 and CBX7 inh z-score 0.17.
Screening CC(C)CCN1C(=O)CCC1(C)C(=O)NC1CCCCCCC1 (configuration not stated) returned CBX7 inh 1.3 and CBX7 inh z-score 2.4.
For CCN(CC)c1ccc2cc(-c3nnc(Nc4ccc(F)cc4)s3)c(=O)oc2c1 the results were CBX7 inh 1 and CBX7 inh z-score 0.7.
For Cn1cc(Br)c(C(=O)N2CCC(Cc3ccccc3)CC2)n1 the results were CBX7 inh 0.93 and CBX7 inh z-score -1.6.
For Cc1ccc(-n2c(C)nc3c(cnn3-c3ccc(Cl)cc3)c2=O)cc1 the results were CBX7 inh 0.76 and CBX7 inh z-score -3.6.
`COc1ccc(-c2cn3c4ccccc4n(CCN4CCCCC4)c3n2)cc1` gave CBX7 inh 0.52 and CBX7 inh z-score -5.1.
Cc1ccccc1-n1nc2c(c1NC(=O)c1ccc(Br)cc1)CSC2 was read as CBX7 inh 0.93 and CBX7 inh z-score -1.7.
Screening COCCN1Cc2cccc(C(=O)NCc3ccc(F)cc3)c2C1=O returned CBX7 inh 1 and CBX7 inh z-score 0.035.
For Cc1ccc(CCNC(=O)c2nc(-c3ccc(Cl)cc3)oc2C)cc1 the results were CBX7 inh 1 and CBX7 inh z-score 0.072.
O=C(COCc1cc(-c2ccc(F)cc2)on1)NCc1cccs1 was read as CBX7 inh 0.96 and CBX7 inh z-score -0.43.
For COc1ccc(CCNC(=O)CCc2c(C)nc3c(-c4ccccc4)c(C)nn3c2C)cc1OC the results were CBX7 inh 0.97 and CBX7 inh z-score -0.64.
COc1ccc(NC(=O)CCc2c(C)nc3cc(-c4cccc(F)c4)nn3c2C)cc1OC was read as CBX7 inh 1 and CBX7 inh z-score 0.18.
`O=C(NCCc1ccc(Cl)cc1)C1(S(=O)(=O)c2ccc(Cl)cc2)CC1` gave CBX7 inh 0.91 and CBX7 inh z-score -0.12.
COc1ccc2nc(SCC(=O)Nc3nc4ccc(OC)cc4s3)[nH]c2c1 was read as CBX7 inh 1.1 and CBX7 inh z-score 1.5.
`COc1ccccc1Nc1ncc(C(=O)NCc2ccccn2)c2ccccc12` gave CBX7 inh 1.4 and CBX7 inh z-score 2.9.
CCn1c(=O)cc(OCC(=O)NCCc2ccc(Cl)cc2)c2ccccc21 was read as CBX7 inh 1.1 and CBX7 inh z-score 0.84.
`COc1cccc(CNC(=O)c2cc(-c3ccncc3)nc3ccccc23)c1` gave CBX7 inh 1 and CBX7 inh z-score -0.14.
Screening O=C(Nc1nc(-c2cccs2)cs1)c1cc(Cl)cc(Cl)c1 returned CBX7 inh 1.1 and CBX7 inh z-score 2.8.
`CC1CC(C)CN(CCCNC(=O)CN2C(=O)CSc3ncccc32)C1` (configuration not stated) gave CBX7 inh 1.1 and CBX7 inh z-score 0.13.
O=C(Nc1ccc2oc(-c3cccc4c(Br)cccc34)nc2c1)c1cccnc1 was read as CBX7 inh 0.99 and CBX7 inh z-score -0.21.
Screening COc1cc(NC(=O)CC2NC3CCCCC3NC2=O)cc(OC)c1 (configuration not stated) returned CBX7 inh 1 and CBX7 inh z-score 1.4.

The last two compounds of the part before are carried over, then new ones follow.
O=C(Nc1ccc2oc(-c3cccc4c(Br)cccc34)nc2c1)c1cccnc1 was read as CBX7 inh 0.99 and CBX7 inh z-score -0.21.
Screening COc1cc(NC(=O)CC2NC3CCCCC3NC2=O)cc(OC)c1 (configuration not stated) returned CBX7 inh 1 and CBX7 inh z-score 1.4.
`CCOC(=O)c1ccc(-n2c(CCC(=O)O)ccc2-c2cccs2)cc1` gave CBX7 inh 1 and CBX7 inh z-score 1.3.
`COc1ccc2c(c1)CCc1c(C(=O)Nc3cccc(C(F)(F)F)c3)noc1-2` gave CBX7 inh 1.1 and CBX7 inh z-score 2.2.
`Cc1nc(Nc2ccc(Oc3ccc(Cl)cc3)cc2)c2c3c(sc2n1)CCC3` gave CBX7 inh 1 and CBX7 inh z-score -0.035.
CCOC(=O)N1CCN(c2c(NCCc3cccc(C)c3)c(=O)c2=O)CC1 was read as CBX7 inh 1.1 and CBX7 inh z-score 1.2.
Screening COC(=O)Cc1nc(N2CCCC2)c2c3c(sc2n1)CCCC3 returned CBX7 inh 0.78 and CBX7 inh z-score -0.22.
CCN1CCN(CCCNC(=O)c2n[nH]c(=O)c3ccccc23)CC1 was read as CBX7 inh 1.1 and CBX7 inh z-score 0.47.
For O=C(Nc1ccc(Cl)cc1)Nc1nnc(-c2ccccc2Br)s1 the results were CBX7 inh 0.96 and CBX7 inh z-score -0.99.
For CCCc1nn(-c2ccccc2F)c2c1C(=O)CC(C)(C)C2 the results were CBX7 inh 1.1 and CBX7 inh z-score 0.87.
`Cn1c2ccccc2c2c(C(=O)NCC3(c4ccccc4)CCCC3)cn(C3CCCC3)c(=O)c21` gave CBX7 inh 0.98 and CBX7 inh z-score -0.49.
O=C(NC(C(=O)Nc1cccc(Cl)c1)c1ccccc1)c1ccccc1Cl (configuration not stated) was read as CBX7 inh 1.2 and CBX7 inh z-score 3.1.
O=C(NCc1ccc2c(c1)OCO2)c1ccc(Cl)c(NC2=NC3CS(=O)(=O)CC3S2)c1 (configuration not stated) was read as CBX7 inh 1 and CBX7 inh z-score 0.0099.
COc1ccc(C2C(=O)N(C3CCCCC3)CC(=O)N2Cc2ccccc2OC)cc1 (configuration not stated) was read as CBX7 inh 0.95 and CBX7 inh z-score -0.31.
CCCCn1c(COc2ccc(OC)cc2)nc2ccccc21 was read as CBX7 inh 1.1 and CBX7 inh z-score 2.7.
`COCCNC(=O)c1ccc2c(c1)N(Cc1ccc(Cl)cc1)CCS2` gave CBX7 inh 0.8 and CBX7 inh z-score -3.1.
For Cc1cc(C)c2cccc(NC(=O)COc3ccc4oc5c(c4c3)CCCC5)c2n1 the results were CBX7 inh 1 and CBX7 inh z-score 0.32.
COc1cccc(CNC(=O)CN(C)S(=O)(=O)c2ccc3nc(C)sc3c2)c1 was read as CBX7 inh 1.2 and CBX7 inh z-score 1.3.
`CCCNC(=O)C1CC(=O)N(c2ccc(OCC(=O)Nc3cc(C)cc(C)c3)cc2)C1` (configuration not stated) gave CBX7 inh 1 and CBX7 inh z-score 0.44.
For CCN1CCN(C(=O)C2CCN(C(=O)c3cc4sccc4n3CC)CC2)CC1 the results were CBX7 inh 1 and CBX7 inh z-score 0.15.
Screening CCOC(=O)Nc1ccc2c(c1)N(C(=O)CN1CCN(CCO)CC1)c1ccccc1CC2 returned CBX7 inh 0.94 and CBX7 inh z-score -0.88.
Cc1cc(C)c2c(n1)SCC(=O)N2CC(=O)NCc1ccccc1Cl was read as CBX7 inh 1 and CBX7 inh z-score 0.15.
Screening OC(c1cccc2ccccc12)c1nccn1Cc1ccccc1 (configuration not stated) returned CBX7 inh 0.99 and CBX7 inh z-score -0.2.
Screening CCOC(=O)c1c(C)n(-c2ccc(C)cc2)c2ccc(OCC(O)CNc3ccc(Cl)cc3)cc12 (configuration not stated) returned CBX7 inh 0.95 and CBX7 inh z-score -1.
CC1(C)CC(=O)c2cc(OCC(=O)NCCN3CCOCC3)ccc2O1 was read as CBX7 inh 0.97 and CBX7 inh z-score -0.57.
Screening Cc1ccc(NC(=O)Cn2cnc3ccc(S(=O)(=O)N4CCC(C)CC4)cc3c2=O)cc1F returned CBX7 inh 1 and CBX7 inh z-score 0.87.

Five compounds picked at random from those above:
`COCCNC(=O)c1ccc2c(c1)N(Cc1ccc(Cl)cc1)CCS2` gave CBX7 inh 0.8 and CBX7 inh z-score -3.1.
For Cc1cc(C)c2cccc(NC(=O)COc3ccc4oc5c(c4c3)CCCC5)c2n1 the results were CBX7 inh 1 and CBX7 inh z-score 0.32.
Screening CCOC(=O)Nc1ccc2c(c1)N(C(=O)CN1CCN(CCO)CC1)c1ccccc1CC2 returned CBX7 inh 0.94 and CBX7 inh z-score -0.88.
CC1(C)CC(=O)c2cc(OCC(=O)NCCN3CCOCC3)ccc2O1 was read as CBX7 inh 0.97 and CBX7 inh z-score -0.57.
CCCCn1c(COc2ccc(OC)cc2)nc2ccccc21 was read as CBX7 inh 1.1 and CBX7 inh z-score 2.7.

The listing continues:
Screening COc1ccc(Nc2c3c(nc4ccc(Cl)cc24)CCCC3)c(OC)c1 returned CBX7 inh 0.86 and CBX7 inh z-score -0.19.
`CCC(CC)C(=O)Nc1nc(-c2ccccc2)cs1` gave CBX7 inh 1.1 and CBX7 inh z-score 0.15.
COc1ccc(C2(C(=O)NCCc3ccc(OC)c(OC)c3)CCOCC2)cc1 was read as CBX7 inh 1.2 and CBX7 inh z-score 3.
For Cc1ccccc1CN1C(=O)C(O)(CC(=O)c2cccnc2)c2cc(Cl)ccc21 (configuration not stated) the results were CBX7 inh 0.62 and CBX7 inh z-score -0.5.
CCC1(CC)Cc2ccccc2-c2nc(NCCO)[nH]c(=O)c21 was read as CBX7 inh 0.99 and CBX7 inh z-score -0.51.
`CCOC(=O)c1c(NC(=O)c2ccccc2)sc2c1CCCC2` gave CBX7 inh 1.3 and CBX7 inh z-score 3.2.
`Cc1ccc2nc(SCC(=O)Nc3ccc(S(N)(=O)=O)cc3)[nH]c2c1` gave CBX7 inh 0.92 and CBX7 inh z-score -1.4.
COc1ccc(-c2nc3cc(NC(=O)c4cc5ccccc5cc4OC)ccc3o2)cc1 was read as CBX7 inh 1.1 and CBX7 inh z-score 1.1.
Screening COc1ccc2c(c1)c(=O)c(S(=O)(=O)c1ccccc1)cn2Cc1ccccc1 returned CBX7 inh 1.1 and CBX7 inh z-score 1.3.
`COc1ccc(-c2nc3cc(NC(=O)c4ccc(OC)c(OC)c4)ccc3o2)cc1` gave CBX7 inh 1.3 and CBX7 inh z-score 2.7.
Cc1ccc(C)c(-c2csc(NC(=O)c3ccc(S(=O)(=O)N4CC(C)CC(C)C4)cc3)n2)c1 (configuration not stated) was read as CBX7 inh 1 and CBX7 inh z-score 0.28.
Screening COc1ccc(-n2cnc3cc(C(=O)NCC(OC)OC)ccc32)cc1 returned CBX7 inh 1 and CBX7 inh z-score 0.14.
`FC(F)(F)c1cccc(Oc2ncnc3scc(-c4ccccc4)c23)c1` gave CBX7 inh 0.97 and CBX7 inh z-score -0.065.
`O=C(COc1ccccc1)Nc1ccc(S(=O)(=O)Nc2ncccn2)cc1` gave CBX7 inh 0.98 and CBX7 inh z-score -0.65.
Screening CCCN(C(=O)c1ccc2c(=O)n3c(nc2c1)CCCCC3)c1ccc(C(C)C)cc1 returned CBX7 inh 0.88 and CBX7 inh z-score -1.9.
Screening O=C(Cc1ccc(-n2c(=O)[nH]c3ccsc3c2=O)cc1)N1CCC(Cc2ccccc2)CC1 returned CBX7 inh 1 and CBX7 inh z-score -0.044.
`CCc1ccc2nc(NC(N)=NS(=O)(=O)c3ccc(C)cc3)nc(C)c2c1` gave CBX7 inh 1.1 and CBX7 inh z-score 2.1.
For COc1ccc(NC(=O)c2cc(CC(C)C)on2)c(OC)c1 the results were CBX7 inh 1.2 and CBX7 inh z-score 5.
For O=C(NCCCn1ccnc1)C(O)(c1ccccc1)c1ccccc1 the results were CBX7 inh 1 and CBX7 inh z-score 0.014.
Screening CCOC(=O)c1cnc2c(OC)cccc2c1NCCCOC returned CBX7 inh 1 and CBX7 inh z-score 0.01.
For CC(=O)Nc1nc2c(c3c1c(=O)oc1ccccc13)CCCC2 the results were CBX7 inh 1.4 and CBX7 inh z-score 0.72.
For Cc1cccc(NC(=O)CSc2nnc(Cc3cc(=O)[nH]c(=O)[nH]3)n2-c2cccc(C)c2)c1 the results were CBX7 inh 1 and CBX7 inh z-score 0.72.

Assay outcomes from PubChem BioAssay.
